# Assay outcomes deposited in PubChem BioAssay by National Center for Advancing Translational Sciences (NCATS).
# CtBP-E1A inh: inhibitors of CtBP/E1A interaction | AlphaScreen GST-E1A/His-CtBP binding, 1536-well; hits give low values; control for the full effect not named in the record | activity change, % (test concentration not listed) | hit rate 0.49% among 340,000; in the data active means activity change below about -65%; inconclusive means about -30% to -65%; inactive means above about -30%; also: % is scaled to controls: 0 for no effect and ±100 for the full control effect; compound concentration not given in the record
#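 In 5 uL wells, 23 nL compound meets equimolar GST-E1A and His-CtBP (5X stock 125 nM each) for 2 h, 37 °C. Beads (5X, 50 ug/mL) then 1 h, 37 °C, dark.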
# Six1-Eya2 inh: inhibitors of human Six1/Eya2 interaction; Q15475+O00167; AlphaScreen GST-Six1/His-Eya2 binding, biochemical; hits give low values; control for the full effect not named in the record; activity change, % (test concentration not listed); hit rate 0.56% among 360,000; AID 651725; in the data active = activity change below about -65%; inconclusive = about -30% to -65%; inactive = above about -30%; also: % is scaled to controls: 0 for no effect and ±100 for the full control effect; compound concentration not given in the record
#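 Homogeneous AlphaScreen proximity assay pairing GST-Six1 with His-tagged Eya2 (added as 5X mix: 250 nM and 500 nM) in 50 mM Tris pH 8.0, 300 mM NaCl, 1 mM TCEP. Glutathione donor and nickel acceptor beads; 1 h, 37 °C, dark.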
# TRPML1 inh: inhibitors of human TRPML1 channel; Q9GZU1; TRPML1-inducible cells, Ca2+ dye fluorescence, FDSS; hits give low values; inhibition of EC80 agonist-evoked calcium signal; hit rate 0.02% among 390,000; activity change, negative = inhibition, % (no concentration beside the values); in the data active means activity change below about -50%; inconclusive means about -30% to -50%; inactive means above about -30%;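 also: stimulus is agonist 54-4 at its EC80 concentration; % is scaled to controls: 0 for no effect and ±100 for the full control effect; compound concentration not given in the record; the text of the record puts the active cut at -80%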
# Target sequence (Q9GZU1 whole entry, looked up): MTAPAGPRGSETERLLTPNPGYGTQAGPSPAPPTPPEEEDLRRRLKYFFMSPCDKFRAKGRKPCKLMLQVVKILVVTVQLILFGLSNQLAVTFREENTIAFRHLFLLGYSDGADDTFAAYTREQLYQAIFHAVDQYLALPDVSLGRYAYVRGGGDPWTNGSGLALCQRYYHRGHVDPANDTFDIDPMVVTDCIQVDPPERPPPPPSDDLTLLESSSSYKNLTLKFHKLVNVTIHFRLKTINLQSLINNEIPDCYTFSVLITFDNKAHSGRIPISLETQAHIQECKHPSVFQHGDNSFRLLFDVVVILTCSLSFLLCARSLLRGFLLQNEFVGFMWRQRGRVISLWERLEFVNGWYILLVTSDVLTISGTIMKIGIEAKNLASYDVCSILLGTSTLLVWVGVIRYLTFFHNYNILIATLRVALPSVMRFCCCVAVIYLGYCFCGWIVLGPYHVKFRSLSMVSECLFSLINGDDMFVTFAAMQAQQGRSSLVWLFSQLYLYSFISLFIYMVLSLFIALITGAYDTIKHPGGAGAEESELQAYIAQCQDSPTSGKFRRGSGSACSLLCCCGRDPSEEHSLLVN
#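 Calcium fluorescence in TRPML1-DL cells induced overnight with Tet: a 110 s read after compound pin addition, then a 110 s antagonist read after challenge with 54-4 at 4 uM final (EC80).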
# TRPML1 agonist: agonists of human TRPML1 channel; Q9GZU1; TRPML1-expressing cells, Ca2+ dye fluorescence, FDSS; host cell line not named in the record; reference of the full effect not given here; activation, % (no concentration beside the values); hit rate 0.12% among 410,000; AID 624414; in the data active = activation above about 50%; inconclusive = about 30% to 50%; inactive = below about 30%; also: 0% is about no effect; the text of the record puts the active cut at 80%
#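 TRPML1-DL cells, Tet-induced overnight (~16 h, 37 degrees C), loaded 45-90 min at room temperature with Ca8 no-wash calcium dye plus quencher. FDSS fluorescence: 10 s baseline, compound pin-transfer, 110 s agonist read, then EC80 54-4 (4uM final) and 110 s antagonist read.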
# TRPV1 PAM: potentiators of human vanilloid receptor 1 (TRPV1). potentiation, % at 8.33 µM. TRPV1-expressing cells, Fluo-8 calcium influx, capsaicin EC20 potentiation; host cell line not named in the record; control for the full effect not named in the record. AID 540277. hit rate 0.02% among 320,000; active means potentiation above 80%; inconclusive means 30% to 80%; inactive means below 30%; also: 0% is about no effect
#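 Fluo-8 calcium influx in TRPV1-expressing cells, kinetic read (ex 480/em 520 nm). Compound added and read 3 min for agonist activity, followed by capsaicin at EC20 final and 2 min further read for enhancement.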
# D2 PAM: potentiates the human D2 dopamine receptor allosterically. DiscoveRx D2 beta-arrestin cells, luminescence, 90 min; 100% = 57 uM dopamine signal. potentiation, % (no concentration beside the values). hit rate 0.23% among 360,000. AID 624464; active = potentiation of 50% or more; inconclusive = 30% to 50%; inactive = 30% or less;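 also: compound concentration not given in the record; tested on top of an EC20 dose of dopamine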
# Target sequence (P14416 whole entry, looked up): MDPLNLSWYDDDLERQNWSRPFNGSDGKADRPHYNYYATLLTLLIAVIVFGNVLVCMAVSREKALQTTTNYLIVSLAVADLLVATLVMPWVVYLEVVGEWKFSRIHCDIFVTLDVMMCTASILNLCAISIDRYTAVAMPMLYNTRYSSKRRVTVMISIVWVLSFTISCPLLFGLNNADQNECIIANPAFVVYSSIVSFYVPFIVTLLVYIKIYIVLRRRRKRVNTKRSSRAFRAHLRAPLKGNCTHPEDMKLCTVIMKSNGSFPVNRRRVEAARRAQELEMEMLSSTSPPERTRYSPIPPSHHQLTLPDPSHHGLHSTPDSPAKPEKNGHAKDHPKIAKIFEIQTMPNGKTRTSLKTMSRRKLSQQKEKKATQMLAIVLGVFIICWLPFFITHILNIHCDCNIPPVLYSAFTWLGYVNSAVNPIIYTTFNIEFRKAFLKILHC
#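 PathHunter D2 cells, attached overnight at 37 deg C, received compound in DMSO plus dopamine at EC20 (50 nM final) for 90 min at 37 deg C. Beta-arrestin recruitment was read as luminescence after 1 h with detection reagent at ambient temperature.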
# An asterisk follows results filed as active; ? = inconclusive; . = not tested or not shown; & = joins results of further samples.
SMILES,CtBP-E1A inh,Six1-Eya2 inh,TRPML1 inh,TRPML1 agonist,TRPV1 PAM,D2 PAM
COc1ccc(Cl)cc1NC(=O)COc1cccc(-n2cnnn2)c1,-2.9,-7.7,17.8,-0.3,2.8,-9.3
CS(=O)(=O)c1ccc(Sc2nc3ccccc3s2)c([N+](=O)[O-])c1,-6.9,-1.1,-1.0,-0.4,-8.6,14.5
Cc1ccc(NC(=O)Cc2ccc(-c3ccccc3)cc2)nc1,-0.4,-2.4,38.1,2.7,-3.0,-16.5
Cc1c(C#N)c(O)[nH]c(=O)c1N=Nc1ccc(S(N)(=O)=O)cc1,?,11.2,17.9,0.8,9.1,-8.6
Cc1cccc(C)c1NC(=S)N(Cc1cccs1)C1CCCC1,-14.5,1.9,2.8,-0.3,10.7,-1.7
CC1CCN(c2ncnc3c2cnn3-c2ccccc2)CC1,6.0,11.1,12.5,0.1,-17.7,-2.1
COc1cc(C(=O)NCc2ccc(C)cc2)ccc1OC(F)F,35.0,9.9,-1.3,0.7,-15.7,-34.6
Cc1cccc(NC(=O)C2CC(=O)N/C(=N/N=C/c3ccco3)S2)c1 (stereo not given),-9.9,1.1,9.5,-0.4,5.9,7.3
COc1ccc(NC(=O)C(=O)NCCC2CCCCN2S(=O)(=O)c2ccc(F)cc2)cc1 (stereo not given),-16.0,7.1,-18.6,-0.2,-6.0,24.9
COc1ccc(-c2ccc(-c3cc(=O)oc4cc(OC)c(OC)c(OC)c34)cc2)cc1F,7.8,6.7,-1.9,-0.9,.,.
Clc1ccc(-c2nnc3c4ccccc4nc(N4CCOCC4)n23)cc1Cl,1.5,6.0,25.2,2.1,-1.4,-14.6
Cc1ccc(-n2c(C)nnc2SCC(=O)NC2CC2)cc1,5.3,0.2,-13.9,0.6,1.5,-1.8
Cc1ccc(NC(=O)CSCC(=O)Nc2ccc(N3CCOCC3)cc2N2CCOCC2)cc1,1.3,-1.6,-1.2,1.1,-3.8,-11.1
CCN(C[C@H]1N[C@@](Cc2ccccc2)(C(=O)OC)[C@H]2C(=O)N(Cc3ccccc3)C(=O)[C@@H]12)S(=O)(=O)c1ccc(-c2ccccc2)cc1,-3.0,-3.2,5.3,0.6,.,.
COc1ccc(C2SCCN2S(=O)(=O)c2ccccc2)cc1OC (stereo not given),-0.8,3.7,-5.3,1.4,8.0,-3.3
COc1ccc(COC(=O)CCCN=C2NS(=O)(=O)c3ccccc32)cc1F,-10.2,3.6,14.3,0.3,.,-13.8
Fc1cccc(CN2CCN(c3ncccn3)CC2)c1,1.0,1.0,7.8,-0.4,-7.8,55.3*
CCOC(=O)Cc1csc(NC(=O)c2ccoc2C)n1,3.5,-2.2,-6.0,-0.3,18.0,-3.9
Cc1cnc(CNC(=O)C2CCC(=O)N(CCc3cccc(F)c3)C2)[nH]1 (stereo not given),-1.4,3.7,-8.1,0.6,-9.5,-7.8
O=C(C1CCN(Cc2ccccc2)CC1)N1CCCC1,-7.1,-2.1,8.8,0.1,-3.0,-4.8
COc1ccc(C(CC(=O)O)NS(=O)(=O)c2ccc(C)cc2)cc1 (stereo not given),2.6,3.5,-10.7,2.1,2.6,3.7
CCCC(=O)Nc1ccc2oc(-c3ccc(OC)c(Br)c3)nc2c1,2.0,5.0,54.7,-0.9,-4.5,-6.8
CCCCc1ccc(-c2csc(/C(C#N)=C\c3ccc(C)o3)n2)cc1,46.9,0.0,-18.0,0.9,-0.2,-14.9
COc1ccc(-c2cc(O)cc(O)c2)cc1,4.3,-0.7,-5.7,0.1,-8.0,-15.6
CCN(CC)C(=O)CSc1nnc(COc2ccccc2)n1N,.,10.0,4.2,-0.1,15.9,-8.1
O=C(OCc1c(-c2ccccc2)ncc2ccccc12)c1ccc(Cl)cc1Cl,-8.1,0.6,8.8,0.1,1.7,-7.8
Cc1ccccc1NS(=O)(=O)c1ccc(C2CNC(=O)C2)cc1 (stereo not given),-17.4,-0.7,-11.2,0.3,-18.9,-3.5
Cc1cc(C)c(NC(=O)Cn2c(=O)c3cccn3c3ccccc32)c(C)c1,.,5.2,-3.2&-15.6,-0.5&0.7,-12.3,-0.7
COc1cccc(NC(=O)C2CC(=O)OC23CCOC(C)(C)C3)c1 (stereo not given),-0.4,-4.7,-14.2,0.1,-3.7,-15.7
CCc1ccc(NC(=O)Nc2ccc3c(c2)CCC3)cc1,-16.9,-6.5,5.3,0.0,-2.2,-7.6
CCOc1ccc(Cl)cc1-c1cc(C(=O)Nc2cc(OC)c(OC)c(OC)c2)[nH]n1,-2.8,-7.5,.,-0.8,.,0.5
CCc1ccc(N2CC(C(=O)Nc3ccc4c(c3)OCO4)CC2=O)cc1 (stereo not given),11.4,-0.6,-3.5,0.3,2.3,-5.0
O=C(CSc1nc2[nH]ncc2c(=O)[nH]1)Nc1ccc(F)cc1,-8.3,-2.5,2.6,2.3,16.1,-29.4
CC[C@]12c3[nH]c4ccccc4c3CCN1C(=O)C(CC(=O)NCCN1CCOCC1)C[C@@H]2C(=O)N1CCN(C(=O)c2ccco2)CC1 (stereo not given in full),7.6,8.3,14.3,0.1,.,.
Cc1onc(-c2ccccc2)c1C(=O)Nc1ccc2c(c1)OCO2,4.8,-0.9,-11.6,-0.1,-16.7,-10.3
Cc1cnc(N)nc1-c1ccccc1,2.4,1.4,-10.9,0.0,.,-1.8
COc1ccc(F)cc1S(=O)(=O)N1CCN(C(=O)c2ccco2)CC1,4.1,6.6,16.9,0.3,-4.0,3.6
CCC(=O)c1ccc(OCC(=O)Nc2ccc(N3CCCCC3)cc2)cc1,6.3,-0.2,-0.9,0.8,5.0,-0.3
COC(=O)c1sccc1NN1C(=O)c2ccccc2C1=O,10.9,2.3,6.2,-0.6,7.9,-7.1
Cc1nc2c(OCc3ccc(C#N)cc3)cccn2c1N(C)C(=O)CCC1CCCC1,-29.8,9.5,-4.1,1.8,.,-13.5
Cc1ccc(OCCCC(=O)Nc2ccc(Cl)c(S(=O)(=O)N3CCOCC3)c2)cc1,0.3,-1.7,16.9,2.6,-9.3,0.3
CCc1cccc(CC)c1NC(=O)COn1nnc2ccc(C(F)(F)F)cc21,2.1,10.5,18.4,1.8,-4.2,15.9
CC1(C)C=Cc2c(c3c(c4c(=O)c(-c5ccc(O)cc5)coc24)OC(C)(C)CC3)O1,-14.2,0.5,.,.,16.9,-35.6
Cc1ccc(C(CNC(=O)C(=O)Nc2ccc3c(c2)OCCO3)N2CCN(C)CC2)cc1 (stereo not given),3.7,-1.5,13.8,0.6,10.4,-16.5
O=C(NNC(=S)NC1CCCCC1)c1ccccc1Br,.,8.8,-8.6,0.0,?,-9.3
COc1ccc(/C=C/CN2CCCC(CO)(Cc3cccc(Cl)c3)C2)cc1 (stereo not given),-12.1,-13.8,-0.5,0.2,-5.8,-26.6
CCc1ccc(N2CC(C(=O)NC3CC3)CC2=O)cc1 (stereo not given),10.2,9.9,2.4,-0.4,-3.4,-7.9
COc1cccc(SCc2noc(C(=O)NCC3CCCO3)c2C(=O)O)c1 (stereo not given),1.5,21.5,-4.1,-0.6,4.4,-5.6
O=C(CNS(=O)(=O)c1ccc(Br)s1)N1CCN(c2ccc(F)cc2)CC1,-8.7,-1.1,24.1&7.1,-1.6&1.3,19.9,-4.6
O=C(CNC(=O)c1cc(-c2ccccc2)nn1-c1ccccc1)Nc1ccccc1Br,8.9,24.5,-8.4,6.0,.,0.8

# The list continues:
SMILES,CtBP-E1A inh,Six1-Eya2 inh,TRPML1 inh,TRPML1 agonist,TRPV1 PAM,D2 PAM
Cc1ccc(OCC(O)Cn2c(=N)n(CCN3CCCCC3)c3ccccc32)cc1 (stereo not given),-21.9,-5.3,-6.9&-11.5,-0.4&0.6,-10.7,-8.7
CC(Oc1ccc(Br)cc1Cl)C(=O)Nc1ccncc1 (stereo not given),-3.2,-0.2,-1.2,0.3,-2.0,-4.5
COc1ccc(C(=O)Nc2c(-c3ccccc3)nc3ccccn23)c(OC)c1,-0.6,-11.9,.,.,-7.8,-6.7
C[C@@H]1CC[C@H](Cc2ccc(-n3cccc3)cc2)N1C(=O)OC(C)(C)C,-1.8,-14.9,19.5,7.9,.,3.6
CN(C(=O)c1ccc(Cl)cc1)C1CCS(=O)(=O)C1 (stereo not given),.,0.7,12.8,-0.9,.,-2.2
CC1(C)Cc2ccccc2C(NNC(=O)c2ccc(Br)o2)=N1,1.0,6.1,0.3,-0.6,.,-5.3
CS(=O)(=O)N(CC(=O)Nc1cccc(F)c1)c1cccc([N+](=O)[O-])c1,1.9,1.1,2.0,-1.0,6.0,-3.3
CCOC(=O)c1cnc(-n2[nH]c(C)cc2=O)[nH]c1=O,-92.1*,-76.9*,-11.2,-0.6,8.2,-6.2
Clc1ccc(-n2nnc(-c3nccs3)n2)cc1Cl,-0.7,0.3,1.3,-0.2,19.5,-3.1
CCOc1ccc(NC(=O)N2CCC(NC(=O)C(Cc3ccc(OC)c(OC)c3)NC(C)=O)CC2)cc1 (stereo not given),-3.0,3.0,-3.5,0.7,20.6,-9.6
Cc1cc(C(=O)CSc2n[nH]c(N)n2)c(C)n1-c1ccc2c(c1)OCO2,-29.1,-19.5,0.6,0.0,-9.7,-6.0

# Filtered by structure, the compounds so far with a Cl atom.
SMILES,CtBP-E1A inh,Six1-Eya2 inh,TRPML1 inh,TRPML1 agonist,TRPV1 PAM,D2 PAM
COc1ccc(Cl)cc1NC(=O)COc1cccc(-n2cnnn2)c1,-2.9,-7.7,17.8,-0.3,2.8,-9.3
Clc1ccc(-c2nnc3c4ccccc4nc(N4CCOCC4)n23)cc1Cl,1.5,6.0,25.2,2.1,-1.4,-14.6
O=C(OCc1c(-c2ccccc2)ncc2ccccc12)c1ccc(Cl)cc1Cl,-8.1,0.6,8.8,0.1,1.7,-7.8
CCOc1ccc(Cl)cc1-c1cc(C(=O)Nc2cc(OC)c(OC)c(OC)c2)[nH]n1,-2.8,-7.5,.,-0.8,.,0.5
Cc1ccc(OCCCC(=O)Nc2ccc(Cl)c(S(=O)(=O)N3CCOCC3)c2)cc1,0.3,-1.7,16.9,2.6,-9.3,0.3
COc1ccc(/C=C/CN2CCCC(CO)(Cc3cccc(Cl)c3)C2)cc1 (stereo not given),-12.1,-13.8,-0.5,0.2,-5.8,-26.6
CC(Oc1ccc(Br)cc1Cl)C(=O)Nc1ccncc1 (stereo not given),-3.2,-0.2,-1.2,0.3,-2.0,-4.5
CN(C(=O)c1ccc(Cl)cc1)C1CCS(=O)(=O)C1 (stereo not given),.,0.7,12.8,-0.9,.,-2.2
Clc1ccc(-n2nnc(-c3nccs3)n2)cc1Cl,-0.7,0.3,1.3,-0.2,19.5,-3.1
